FGF22 binding = binders of human FGF22 protein, primary screen, FGF22 synaptogenesis inhibitor project, biophysical, thermal shift, single point; recombinant FGF22 thermal shift, SYPRO orange fluorescence; percent of sucrose octasulfate shift, DMSO zero; calls only at 9.99 µM; hit rate 1.5% among 340,000; AID 651658, 2012; Fibroblast growth factor 22 (Homo sapiens), Q9HCT0;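 active = melting point raised past a set limit in the mean and every replicate; inconclusive = no clear call; three in four hits are not shown here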
Target sequence (Q9HCT0 whole entry, looked up): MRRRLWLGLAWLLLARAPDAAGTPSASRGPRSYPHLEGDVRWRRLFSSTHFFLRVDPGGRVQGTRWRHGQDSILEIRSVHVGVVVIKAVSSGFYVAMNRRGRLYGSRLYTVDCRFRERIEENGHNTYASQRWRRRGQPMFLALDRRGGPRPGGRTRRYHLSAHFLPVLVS
ALR H2O2 inh = inhibitors of human ALR sulfhydryl oxidase, primary screen, biochemical, H2O2 detection, HRP-luminol luminescence, single point. FAD-linked sulfhydryl oxidase ALR (Homo sapiens), P55789. purified ALR, DTT oxidation. inhibition, % (concentration not given with the values). hit rate 3.8% among 290,000;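 active = mean and each replicate at 75% or more; inconclusive = only one of the two met; inactive = neither met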;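 note: stock transfer was 7.5 nL into about 7.5 µL; 0% = neutral wells and 100% = wells with inactivated enzyme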
Target sequence (P55789 whole entry, looked up): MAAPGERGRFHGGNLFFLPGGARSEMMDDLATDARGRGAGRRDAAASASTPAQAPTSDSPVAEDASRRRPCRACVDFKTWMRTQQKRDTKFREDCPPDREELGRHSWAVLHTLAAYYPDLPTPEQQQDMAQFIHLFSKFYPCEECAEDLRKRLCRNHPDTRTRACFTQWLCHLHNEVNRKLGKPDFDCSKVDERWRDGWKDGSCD
RanGTP-Impb inh = inhibitors of RanGTP-importin-beta interaction, primary screen, biochemical, FRET, CFP-Ran, YFP-importin-beta, homogeneous | Ran GTPase (GTP-bound) - importin-beta complex | cell-free CFP-Ran/YFP-importin-beta FRET ratio | inhibition, % (concentration not given with the values) | hit rate 1.1% among 300,000 | AID 2216, 2009;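 active = most replicates above 15%; inconclusive = exactly half above 15%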;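 note: 0% = DMSO wells and 100% = Ran loaded with GDP instead of GTP; wells of about 40 µL received 100 nL stock; the first replicate is given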
AF4-AF9 inh = inhibitors of AF4 peptide binding to AF9, primary screen, biochemical, AlphaScreen, biotin-AF4 peptide, FLAG-AF9, single point. inhibition, % at 10 µM. hit rate 0.47% among 350,000;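 active = every replicate reaching a set inhibition limit, whatever the replicate mean, cut at about 25% in these data; inconclusive = mean inhibition reaches that limit but some replicates miss it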;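 note: 0% = plate neutral control median and 100% = total signal loss; the record names both 10 and 1 µM as test concentration; the first replicate is given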
Target sequence (P42568 whole entry, looked up): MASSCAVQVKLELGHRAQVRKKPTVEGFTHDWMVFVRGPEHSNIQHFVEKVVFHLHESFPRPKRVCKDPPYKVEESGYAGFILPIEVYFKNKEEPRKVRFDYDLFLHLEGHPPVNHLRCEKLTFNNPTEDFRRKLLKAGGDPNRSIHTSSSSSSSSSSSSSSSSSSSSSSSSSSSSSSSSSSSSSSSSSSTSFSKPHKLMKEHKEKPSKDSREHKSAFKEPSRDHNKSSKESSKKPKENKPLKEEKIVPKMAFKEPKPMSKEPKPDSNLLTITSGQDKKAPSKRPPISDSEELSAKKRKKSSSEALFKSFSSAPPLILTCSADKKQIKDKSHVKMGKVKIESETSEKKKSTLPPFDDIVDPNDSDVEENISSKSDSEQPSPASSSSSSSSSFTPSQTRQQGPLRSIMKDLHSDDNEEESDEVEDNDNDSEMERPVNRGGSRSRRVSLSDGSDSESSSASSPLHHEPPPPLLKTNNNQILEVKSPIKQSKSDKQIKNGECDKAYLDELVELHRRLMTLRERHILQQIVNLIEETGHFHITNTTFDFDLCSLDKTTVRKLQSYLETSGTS
T cruzi inh = inhibitors of intracellular T. cruzi growth, primary screen, luminescence, NIH3T3 host cells | T. cruzi beta-gal in NIH3T3, 90 h | inhibition, % (concentration not given with the values) | hit rate 1.4% among 300,000;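 active = mean inhibition across valid replicates above about 55%, limit read from the data; inconclusive = mean below that limit but half or more replicates reach it; inactive = mean below it, under half of replicates reach it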;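 note: signal also drops with host cell toxicity which is not excluded here; 0% = plate median of DMSO wells and 100% = zero luminescence signal; higher percent means less beta-gal luminescence so fewer parasites; stock transfer was 50 nL into about 50 µL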
Calb FLC = C. albicans growth inhibition with fluconazole, primary screen, CaCi-2 strain, Alamar Blue fluorescence; C. albicans CaCi-2 (fluconazole-resistant clinical isolate) + fluconazole, 48 h; growth inhibition, % (test concentration not listed); AID 1979, 2009; hit rate 0.57% among 300,000;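 active = most replicates above 75%; inconclusive = exactly half above 75%; inactive = most below 75%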;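 note: all wells also contain fluconazole at 8 µg/ml as a sub-toxic cotreatment; 0% = median of DMSO wells and 100% = median of geldanamycin control wells; wells of about 8 µL received 7.5 nL stock; the first replicate is given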
Beta cell apopt = inhibitors of cytokine-induced beta cell apoptosis, primary screen, luminescence; INS-1E cytokine-induced death, ATP luminescence, 48 h; percent of positive-control rescue, neutral wells zero; protection from apoptosis, % (no concentration beside the values); hit rate 0.8% among 300,000; AID 435005, 2010;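 active = all replicates at 75% or more, or half of them and the mean; inconclusive = half reach 75% but not the mean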;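 note: 0% = cytokine-treated negative control wells and 100% = positive control rescue; higher means more ATP so stronger rescue from cytokine killing; wells of about 40 µL received 100 nL stock; the first replicate is given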
rRNA inh HTS = reduced GFP signal of wild-type E. coli, primary screen, bacterial rRNA inhibitor project, GFP/RFP fluorescence, OD600, single point | GFP signal change (wild-type ribosome), % (concentration not given with the values) | E. coli WT GFP vs humanized-ribosome RFP mutants, 24 h; active compounds read low; DMSO median 0, no signal -100 | hit rate 1.6% among 350,000;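 active = significant combined selectivity score with lowered wild-type GFP, culture density cut under 30%, mutant RFP and density less affected; inactive = any of these conditions unmet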; note: one replicate is shown; some compounds called inactive have numbers as strong as hits
rRNA inh HTS OD600 = second read-out of rRNA inh HTS, no call of its own (marks repeat the call); OD600 change, %; measured here: OD600 growth;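 optical density of the mix in the first replicate; 0 = DMSO median and -100 = no signal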
rRNA inh HTS RFP = second read-out of rRNA inh HTS, no call of its own (marks repeat the call); RFP signal change, %; measured here: RFP humanized mutant strains;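 first replicate; 0 = DMSO median and -100 = no signal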
* hit, by the source's call; i = inactive; ? = inconclusive; / = not tested or not shown; & = joins results of further samples. A portion of the library; rates above refer to the full screens.

SMILES	FGF22 binding	ALR H2O2 inh	RanGTP-Impb inh	AF4-AF9 inh	T cruzi inh	Calb FLC	Beta cell apopt	rRNA inh HTS	rRNA inh HTS OD600	rRNA inh HTS RFP
O=C(O)c1ccc(CNCc2ccc(F)cc2)cc1	i	-10	7.9	-2.2	0	-4	-3	18	4	-1.4
Cc1ccc(S(=O)(=O)N2CCNC(=O)CC2)cc1	i	/	/	1.7	/	-18	-3	20	6	1.4
CC(C)(C)n1nc2c(c1NC(=O)c1ccc(S(=O)(=O)N3CCCC3)cc1)CSC2	i	2	5.9	-0.6	-14	14	7	11	7	2.9
CCOc1ccc(NC(=O)Cc2cccc3ccccc23)c([N+](=O)[O-])c1	i	-9	?	2.1	16	-1	-10	2	23	1.1
C=CCOC(=O)C1=C[C@H](c2ccc3c(c2)OCO3)C[C@H](OCCCCO)O1	/	5	6.0	/	15	1	-4	/	/	/
COCCNc1nc(-c2cc(C(=O)Nc3ccccc3)on2)cc(C(C)C)n1	/	/	8.9	/	1	6	1	/	/	/
COc1cc(CC(=O)OCC(=O)N2CC(C)CC(C)C2)cc(OC)c1OC (stereo not drawn)	i	-4	0.4	0.8	-2	3	0	3	10	0.6
Cc1ccc2c(c1)nnn2C1CCN(S(=O)(=O)c2ccc(C(=O)O)cc2)CC1	i	0	-2.4	-0.2	-13	21	3	2	4	-6.2
Cc1ccc(N=C2CCCN2Cc2ccccc2)c(C#N)c1	i	15	2.7	0.7	-33	-3	-6	-12	-11	1.0
CN1CCN(C2=C(Cl)C(=O)N(C3CCCCC3)C2=O)CC1	/	7	-1.6	/	34	4	12	/	/	/
COc1ccc2c(-c3ccccc3)cc(=O)[nH]c2c1	i	0	0.3	6.8	-5	33	4	8	0	2.6
O=C(CNS(=O)(=O)c1ccc(Br)s1)NC1CCCc2ccccc21 (stereo not drawn)	i	-8	-1.0	-1.9	13	34	7	-11	-10	-0.8
O=C(CNC(=O)c1ccc(Cl)cc1)OCC(=O)c1ccc2c(c1)OCCO2	/	-2	-0.4	/	4	0	-3	4	1	-0.1
CC1(C)Cc2c(sc3nc(N/N=C/c4ccccc4)[nH]c(=O)c23)CO1	i	-2	1.3	-4.8	15	52	4	-1	-4	-4.4
O=S(=O)(CCc1nnc(-c2ccccc2)o1)c1ccc2ccccc2c1	/	-9	-3.3	/	-9	-7	3	/	/	/
O=C(CSc1nnc(COc2ccccc2)o1)Nc1ccc(F)cc1	i	1	0.5	0.0	-4	-13	-5	3	6	-2.0
O=C(COc1ccc(Cl)cc1)Nc1nc(-c2ccc(S(=O)(=O)N3CCOCC3)cc2)cs1	/	-2	-4.4	/	2	9	-1	/	/	/
O=C(CN1C(=O)c2cccc3cccc(c23)C1=O)N1CCOCC1	i	0	-1.9	0.9	-6	-21	-5	3	-7	-5.0
CCCCn1c(N)c(N(CCOC)C(=O)COC(=O)CCOc2ccc(C)cc2)c(=O)[nH]c1=O	i	-5	/	-0.2	/	/	-4	6	10	-1.3
Cc1c(N=C2N=C(NC(=O)Nc3ccc(Cl)cc3)c3ccccc32)c(=O)n(-c2ccccc2)n1C	i	/	0.3	-1.6	0	0	7	-23	-23	5.7
CCOC(=O)c1c(-c2ccccc2)csc1NC(=O)c1ccc(N2C(=O)CCC2=O)cc1	i	-4	-1.3	-2.0	/	25	-4	9	2	-6.6
O=C(CNC(=O)c1ccco1)OCC(=O)c1ccc([N+](=O)[O-])cc1	i	99*	2.4	-4.1	-8	19	1	-3	-1	-4.4
Nc1ccccc1C(=O)NCc1ccccc1	/	-19	3.4	/	-7	-1	-5	/	/	/
CCOC(CNC(=O)c1cccc([N+](=O)[O-])c1)OCC	i	1	-0.3	2.4	2	2	0	0	11	-2.8
COc1ccccc1NS(=O)(=O)c1ccc(C(=O)NCc2ccc(S(N)(=O)=O)cc2)cc1	i	-2	/	-4.3	/	/	-8	12	12	0.3
Cc1ccc(-n2c(O)c(C=Nc3ccc4c(c3)OCO4)c3ccccc3c2=O)cc1C	/	-4	19*	/	9	-8	3	/	/	/
O=c1c2ccccc2c(-c2ccc(Cl)cc2)nn1-c1ccccc1	/	-7	2.2	/	22	-1	10	/	/	/
Cc1ccc(C)n1-c1ccc(C(=O)NN)s1	i	/	?	4.1	-3	-6	-4	-1	6	4.2
COc1ccc(NC(=O)c2cccnc2C(=O)O)c(OC)c1	/	-15	1.1	/	-4	10	-1	/	/	/
O=[N+]([O-])c1ccccc1/C=N/OCc1ccccc1	i	-3	3.6	-1.3	-5	2	1	-17	-4	0.7

2 compounds from above, showing only RanGTP-Impb inh, AF4-AF9 inh and rRNA inh HTS OD600.
| SMILES | RanGTP-Impb inh | AF4-AF9 inh | rRNA inh HTS OD600 |
| --- | --- | --- | --- |
| COc1ccc(NC(=O)c2cccnc2C(=O)O)c(OC)c1 | 1.1 | / | / |
| O=[N+]([O-])c1ccccc1/C=N/OCc1ccccc1 | 3.6 | -1.3 | -4 |

Next section
SMILES	FGF22 binding	ALR H2O2 inh	RanGTP-Impb inh	AF4-AF9 inh	T cruzi inh	Calb FLC	Beta cell apopt	rRNA inh HTS	rRNA inh HTS OD600	rRNA inh HTS RFP
COCCN1CCN(C(=O)c2ccc3c(c2)S(=O)(=O)c2ccccc2C3=O)CC1	i	0	-1.1	-1.9	-27	-6	-2	-1	9	1.5
CC(=O)Nc1ccc(S(=O)(=O)NNC(=O)COc2ccc(Cl)cc2Cl)cc1	i	-2	-0.2	-0.3	-8	1	-2	-2	-3	3.5
CN1CCN(C(=O)C2=C[C@H](C3CCCCC3)C[C@H](OCc3ccc(CO)cc3)O2)CC1	i	-2	-2.0	1.6&-17	20	-25	3	0	-1	14
COCCN(CCOC)C(=S)Nc1ccccc1Cl	i	1	?	-3.5	-4	1	-6	7	8	-1.9
CCCCN1C(=O)C(=O)N(CC(=O)Nc2cc(OCC)c(N3CCOCC3)cc2OCC)C1=O	i	-5	4.6	0.1	-10	24	1	-5	0	-2.5
O=C(NCCn1cccn1)c1ccc(OC2CCN(C(=O)C3CC3)CC2)cc1	i	-6	-5.4	0.5	-14	11	-5	14	14	3.5
CC(CNC(=O)CCn1ccc2cc(S(=O)(=O)N3CCCC3)ccc21)c1ccccc1 (stereo not drawn)	i	1	-0.3	2.1	18	-8	-2	-18	-25	5.0
CCOC(=O)c1ccc(NC(=S)NCCc2ccccc2)cc1	/	-12	-0.1	/	-6	2	-3	/	/	/
CCOC(=O)c1ccc(NS(=O)(=O)c2cc3c(cc2C)NC(=O)CO3)cc1	i	-8	-1.4	0.8	7	3	-9	2	-9	4.3
Cc1ccc(NS(=O)(=O)c2ccc(C(=O)N3CC(C)OC(C)C3)cc2)cc1 (stereo not drawn)	i	-1	-0.7	0.7	-5	-1	5	4	9	0.4
CCc1nnc(NC(=O)c2cc(-c3ccccc3)nn2-c2ccccc2)s1	/	2	-0.6	/	19	40	-2	/	/	/
CN(C(=O)COc1coc(CN2CCN(c3ccccc3)CC2)cc1=O)c1ccccc1	i	46	1.3	-0.7	-4	16	/	-3	1	0.1
CN(CC(=O)Nc1cccc(F)c1)C(=O)c1ccccc1CCc1ccccc1	i	-5	/	3.7	10	-3	0	0	-1	-1.9
CNC(=S)NNC(=O)CNc1ccc(C)c(Cl)c1	i	31	3.8	-2.4	-18	1	4	-8	-7	-2.2
O=[N+]([O-])c1ccc(C2=NN(CCO)C(=Nc3ccc(OC(F)(F)F)cc3)SC2)cc1	i	-8	2.3	15	9	0	-10	-12	-10	-0.7
CCCN(C(=O)/C=C/c1ccco1)c1c(N)n(Cc2ccccc2)c(=O)[nH]c1=O	i	-20	1.0	-1.5	-6	-3	6	13	8	-4.3
COCCn1c(N)c(N(Cc2ccccc2)C(=O)COc2ccc(F)cc2Cl)c(=O)[nH]c1=O	i	-6	-0.2	?	-2	-4	-7	-1	2	0.2
CCN(CC)S(=O)(=O)c1ccc(NC(=O)Cn2cnc3ccccc3c2=O)cc1	/	-26	2.8	/	0	-3	-4	/	/	/
COc1ccc(NC(=O)CCN2CCN(C/C=C/c3ccccc3)CC2)cc1	i	-8	1.0	-0.2	57*	11	/	-7	-3	-3.8
CCOC(=O)c1cnc2c(cnn2C)c1NCCC#N	/	-5	4.6	/	-5	6	1	/	/	/
COCCn1c(C)cc(C(=O)CSc2nncn2-c2ccccc2)c1C	/	-2	-1.0	/	-5	-14	1	/	/	/
Cc1cc(C(=O)Nc2c(C)n(C)n(-c3ccccc3)c2=O)c(C)o1	/	7	1.2	/	3	-25	-5	/	/	/
CCO[C@H]1OC(C(=O)N2CCN(Cc3ccc4c(c3)OCO4)CC2)=C[C@@H](C2CC2)[C@@H]1CCCO	i	-11	4.2	-2.4	-1	-22	-2	-1	6	-0.2
COc1cccc(C(C(=O)NC2CCCCC2)N(Cc2ccco2)C(=O)c2ccccn2)c1 (stereo not drawn)	i	-4	-2.4	0.4	1	1	-1	3	-8	0.7
Cc1cc2oc(=O)cc(CN3CCOCC3)c2cc1C(C)C	i	5	1.4	-1.0	-5	6	-5	4	-6	0.3
CSc1nnc(-c2ccc(Br)s2)n1C	i	/	0.1	-3.7	-7	-4	7	1	2	-1.3
COc1ccc(/C=C(\C#N)C(=O)ONC2=NCCCCC2)cc1	i	12	3.0	-3.7	5	43	-2	1	10	9.0
O=C1c2ccccc2NC(c2cccc(O)c2)N1c1ccccc1 (stereo not drawn)	i	-10	1.5	-1.5	16	-8	-3	-1	-2	-0.2
CC(=O)Nc1cccc(NC(=O)CCNC(=O)c2ccc(Cl)cc2)c1	i	-1	-0.2	3.2	-15	5	-8	-11	-2	1.4
C(=NCCCN1CCOCC1)c1ccc2c(c1)OCO2	/	-5	4.2	/	-3	4	-7	/	/	/
O=C(CCSc1ccccc1)NC(=O)COC(=O)C1CCCCC1	i	3	-2.9	-0.8	-13	-9	/	-2	-3	-1.4
S=C1NC2=C(C(c3ccc(Br)cc3)N1)N1CCC2CC1 (stereo not drawn)	/	-13	1.6	/	-8	18	-13	/	/	/
COc1ccccc1/C=C/C(C)=O	/	-5	-2.3	/	0	-38	-3	/	/	/
CCC(CC)C(=O)c1c[nH]c(C(=O)NCCOC)c1	i	-8	0.8	7.1	13	-12	2	2	11	-2.7
COc1ccc2nc(NC(=O)c3ccccc3C(=O)O)sc2c1	i	-36	2.8	-1.2	-5	-8	-6	-5	-5	-5.0
O=C(NCCc1ccccc1)C(=O)NCC1CCCN1S(=O)(=O)c1cccs1 (stereo not drawn)	i	-10	0.8	?	3	-1	-1	-4	-7	1.3
Cc1ccccc1OCc1nnc(SCC(=O)NCc2ccco2)n1C	i	1	1.3	-1.5	-8	23	/	4	-4	-0.5
N#Cc1cnc(SCCc2ccccc2)nc1N	/	-2	?	/	3	-6	5	/	/	/
